# High-throughput results: PubChem, SRMLSC
# H5N1 antiviral: MDCK cell protection from H5N1 avian flu; cytopathic effect, luminescence, 72 h; hits give high values; no value below 0 was filed and about half of the inactive calls have no number; reference of the scale not given here; inhibition, % at 50 µM; actives 0.07% (n = 96,000); AID 740, 2007; in the data active = inhibition above about 25%
# * hit, by the source's call; i = inactive. An excerpt (hit frequency here may not be typical).
SMILES	H5N1 antiviral
O=C(c1ccc2nccnc2c1)N1CCN(Cc2ccc3c(c2)OCO3)CC1	0.3
O=C(/C=C/c1ccc2c(c1)OCO2)N1CCOCC1	i
c1csc(CNc2ncnc3nc[nH]c23)c1	2.5
COC(=O)c1cc2oc3ccccc3c2n1CC(=O)Nc1ccccc1OC	i
CC(C)COP(=O)(OCC(C)C)C(O)c1ccccc1F (stereo not drawn)	i
O=C(c1ccc(Br)o1)N1CCN(c2ccc(F)cc2)CC1	i
COc1ccc(CN(CC(=O)NCc2ccco2)C(=O)CCC(=O)Nc2nccs2)cc1	i
COc1ccc(OC2C(=O)N(Cc3ccc4c(c3)OCO4)C2c2cccs2)cc1 (stereo not drawn)	2.1
Cc1noc(C)c1CSc1nc2ccccc2c(=O)n1-c1ccc(F)cc1F	2.2
CCc1onc(C)c1C(=O)Nc1cc(C)ccc1OC	0.2
CCOc1ccc(OCC)c2sc(C)nc12	i
Cc1cc(C(=O)NCc2ccc(C(=O)O)o2)c(C)o1	0.4
O=C(Cn1cnc2c(oc3ccccc32)c1=O)c1ccccc1	i
CCOC(=O)c1cc2sccc2n1CC(=O)O	0.6
CC(=O)NCC(=O)OC(C)C(=O)Nc1ccc(C(C)=O)cc1 (stereo not drawn)	i

# The closing 7 entries of the section above are carried over, then new ones follow:
SMILES	H5N1 antiviral
Cc1noc(C)c1CSc1nc2ccccc2c(=O)n1-c1ccc(F)cc1F	2.2
CCc1onc(C)c1C(=O)Nc1cc(C)ccc1OC	0.2
CCOc1ccc(OCC)c2sc(C)nc12	i
Cc1cc(C(=O)NCc2ccc(C(=O)O)o2)c(C)o1	0.4
O=C(Cn1cnc2c(oc3ccccc32)c1=O)c1ccccc1	i
CCOC(=O)c1cc2sccc2n1CC(=O)O	0.6
CC(=O)NCC(=O)OC(C)C(=O)Nc1ccc(C(C)=O)cc1 (stereo not drawn)	i
O=C1OCc2cc(NS(=O)(=O)c3cccs3)ccc21	0.3
CCN1C(=O)CSc2ccc(C(=O)NCc3ccc(OC)cc3)cc21	i
Cn1c(=O)cc(SCC(=O)NCC2COc3ccccc3O2)c2ccccc21 (stereo not drawn)	0.3
CC(O)c1cccc(NC(=O)CCC(=O)O)c1 (stereo not drawn)	i
Cn1c(SCC(=O)Nc2nc3ccccc3s2)nnc1-c1ccccc1	1.3
CCCn1c(N)c(N2CCCCC2)c(=O)n(CC(=O)Nc2ccccc2)c1=O	0.5
COc1cccc(CNC(=O)c2cc3c(C)nc4ccccc4c3o2)c1	i
CC(=O)c1c(C)n(CCCOC(C)C)c2ccc(O)cc12	2.5
c1ccc(Nc2nc(N3CCOCC3)nc(N3CCOCC3)n2)cc1	3.7
Cc1cc(OCc2nn[nH]n2)c2c3c(c(=O)oc2c1)CCC3	0.8
CC(=O)Oc1ccc(/C=c2\sc3ncnn3c2=O)cc1	0.5
Nc1c2c(nc3ccccc13)N(c1ccccc1)CC2	1.1
O=C(Nc1nnc(C2CCCO2)s1)c1ccc(Br)cc1 (stereo not drawn)	i
Cn1cc(Cl)c(C(=O)OCC(=O)Nc2ccccc2)n1	i
COc1ccc(CC2C(=O)NC(=O)N(c3ccccc3)C2=O)c(OC)c1 (stereo not drawn)	1.7

# Continued; the last 4 above are carried over.
SMILES	H5N1 antiviral
Nc1c2c(nc3ccccc13)N(c1ccccc1)CC2	1.1
O=C(Nc1nnc(C2CCCO2)s1)c1ccc(Br)cc1 (stereo not drawn)	i
Cn1cc(Cl)c(C(=O)OCC(=O)Nc2ccccc2)n1	i
COc1ccc(CC2C(=O)NC(=O)N(c3ccccc3)C2=O)c(OC)c1 (stereo not drawn)	1.7
Cc1occc1C(=O)N/N=C/c1cccs1	4.0
CSc1nc2c(c(=O)n1-c1ccc(C)cc1)SCC2	i
C=CCSc1nc2c(cc1C#N)CCC2	0.7
Cc1cccc2cc(CN(Cc3nnnn3Cc3ccccc3)C3CCCC3)c(=O)[nH]c12	1.1
COc1ccccc1-c1cc(C(F)(F)F)nc(S(=O)(=O)CCCC(=O)NC(C)C)n1	i
O=c1[nH]c(=S)n(CCC2=CCCCC2)c(O)c1C=NCc1cccnc1	i
Cc1ccc(Nc2cnn(C34CC5CC(CC(CC(=O)O)(C5)C3)C4)c(=O)c2Cl)cc1C	i
CCCNC(=O)CN(c1ccc(F)cc1)S(=O)(=O)c1ccc2c(c1)OCCO2	i
CCSc1nnc(-c2ccc(OC)cc2)o1	i
CCn1c(COc2cccc(C)c2)nnc1SCC(=O)Nc1cccc(C(=O)OC)c1	0.1
CCN(CC)C(=O)CN(C#N)c1nc(NC(C)C)nc(NC(C)C)n1	0.2
CCOc1ccc2nc(N3CCCC(C(=O)NCCCN4CCOCC4)C3)sc2c1 (stereo not drawn)	i
CC(Cc1cccs1)NC(=O)Nc1cccc(Cl)c1 (stereo not drawn)	i
COc1cc(C)c(CNc2cc(C)cc(C)c2)cc1C	0.1
CC(SCC(=O)Nc1ccc(S(=O)(=O)N2CCCCC2)cc1)C(=O)O (stereo not drawn)	0.1
OC(CSc1ccccc1Cl)CN1CCN(c2ccccc2F)CC1 (stereo not drawn)	i
Cc1sc(NC(=O)CCl)c(C(=O)c2ccccc2)c1C	i
CCOC(=O)CSc1snnc1-c1ccccc1	i
CCOCC(=O)NC1CCSC1=O (stereo not drawn)	1.9
CCOc1ccc(CSC(=N)N)cc1[N+](=O)[O-]	0.6
c1ccc2c(c1)oc1c(N3CCOCC3)ncnc12	i
COc1ccc(N2CCN(C(=O)C(OC(C)=O)c3ccccc3)CC2)cc1 (stereo not drawn)	0.2
COc1nc(NC23CC4CC(CC(C4)C2)C3)nc(OC)n1	i
Cc1[nH]c2ccccc2c1CCNC(=O)c1ccc2c(c1[N+](=O)[O-])C(=O)c1ccccc1C2=O	0.9
COC(=O)c1sc(=S)sc1C(=O)OC	i
Cc1cc(NC(=O)Cc2ccccc2)nc2c1c(=O)oc1ccccc12	i
CSCCC(CO)NC(=O)OCc1ccccc1 (stereo not drawn)	0.7
O=C1Nc2ccccc2C12OCCS2 (stereo not drawn)	i
Cc1cc(C)nc(Nc2n[nH]c(COc3ccc4ccccc4c3)n2)n1	i
CCOC(=O)/C(C#N)=C\c1ccc(N2CCN(C)CC2)cc1	1.4
Cc1ccc(S(=O)(=O)CCC(=O)OCC(=O)N2CC(=O)Nc3ccccc32)cc1	i
C=CCNc1nc2c(c(=O)[nH]c(=O)n2C)n1Cc1cccc(C)c1	0.6
CCOc1cccc(NC(=O)C2CC(=O)N(C)C2)c1 (stereo not drawn)	0.7
CCOc1ccc(OCC)c(NC(=O)C2CCCN(c3nc(C)cc(C)n3)C2)c1 (stereo not drawn)	0.8
O=C(NCc1ccc2c(c1)OCO2)c1ccccn1	0.1
CCOc1ccc(Nc2nc(Cc3nnc(SCC(=O)c4ccc(C)cc4)o3)cs2)cc1	i
Cc1ccc(NS(=O)(=O)c2ccc(OCC(=O)NCc3ccco3)cc2)cc1	i
CC(NC(=O)c1cc2c(s1)CCCC2)C(C)(C)C (stereo not drawn)	1.1
Cc1cc(C)nc(Nc2ncc(O)n2-c2ccccc2)n1	0.3
Cc1cc(=O)oc2c1c(C)nn2-c1nn[nH]n1	i
O=c1c(-c2ccco2)[n+]([O-])c2ccccc2n1OCc1ccccc1	i
Cc1cccc(Oc2c(C=O)c3ccccc3n2C)c1	i
CCCCNC(=O)C1CCCN(S(=O)(=O)c2ccc(-n3cnnn3)cc2)C1 (stereo not drawn)	0.3
CCCCOC(=O)Nc1cccc(C(=O)OCC)c1	i
Cc1nn(Cc2ccccc2)c(=O)n1N(C)c1ncc(C(F)(F)F)cc1Cl	0.1
CCOc1cc(-c2cc(-c3ccc(C)cc3)nc(N)c2C#N)ccc1O	i
CN(c1ccc(C(=O)O)cc1)S(=O)(=O)c1ccc(Cl)cc1	0.3
COc1ccc(OC)c(NC(=O)C2CCCCC2C(=O)O)c1 (stereo not drawn)	0.1
C=CCn1c(SCC(=O)NCCCC)nc2scc(-c3ccco3)c2c1=O	6.9
CC(=O)c1c(C)[nH]c(C(=O)OCn2nnc3ccccc3c2=O)c1C	1.0
CCOc1ccc(C)cc1S(=O)(=O)NC1CCCCC1	2.1
CN(CCCC(=O)Nc1ccncc1)S(=O)(=O)c1ccc(Cl)cc1	0.4
CCCCc1c(O)nc(SCC(=O)NCC2CCCO2)[nH]c1=O (stereo not drawn)	i
CC(=O)c1c(C)[nH]c(C(=O)COC(=O)CNS(=O)(=O)c2ccccc2)c1C	0.5
COc1cccc(NC(=O)N2CCN(c3ccc(C(F)(F)F)cn3)CC2)c1	0.1
O=C(CSc1nc2c(cnn2-c2ccc(F)cc2)c(=O)[nH]1)N1CCCCC1	2.2
CCCNc1nc(N2CCOCC2)nc(N2CCOCC2)n1	1.0
COc1ccc(C2=NOC3(CC(=O)N(c4ccc(Cl)cc4)C3=O)C2)c(OC)c1 (stereo not drawn)	i
CCOCCCNC(=O)CSc1ccccc1	i
Cc1ccc(-c2nn(-c3ccccc3)cc2/C=C(\C#N)c2cccc(C#N)c2)o1	i

# The final 3 entries of the section above come first, to join the parts:
SMILES,H5N1 antiviral
COc1ccc(C2=NOC3(CC(=O)N(c4ccc(Cl)cc4)C3=O)C2)c(OC)c1 (stereo not drawn),i
CCOCCCNC(=O)CSc1ccccc1,i
Cc1ccc(-c2nn(-c3ccccc3)cc2/C=C(\C#N)c2cccc(C#N)c2)o1,i
O=C(NCc1ccco1)Nc1cccs1,2.3
Cc1ccc(C(=O)NC2CCCCC2)cc1,i
CCOC(=O)c1c(C)[nH]c(C(=O)Nc2ccc3c(c2)OCO3)c1C,i
COCC(=O)Nc1nc2n(n1)C(c1ccccc1Cl)CC(c1ccc(OC)cc1)N2 (stereo not drawn),i
Cc1ccc2c(CC(=O)NCC3COc4ccccc4O3)coc2c1 (stereo not drawn),i
N#Cc1cn(Cc2ccccc2)c2ccccc12,i
COc1ccc(NC(=O)C(C)Oc2ccc(/C(C)=N\O)cc2)cc1 (stereo not drawn),i
O=C(CSc1nc2ccccc2o1)Nc1ccccc1N1CCCCCC1,i
COc1ccc(-c2nsc3c(SCC(=O)Nc4cc(C)ccc4C)ncnc23)cc1,i
O=C(Nc1nnc(C2CC2)s1)C1Cc2ccccc2CN1S(=O)(=O)c1ccccc1F (stereo not drawn),1.2
CCOC(=O)COc1cccc2c(=O)n(CC(=O)NCc3ccc4c(c3)OCO4)ccc12,0.2
Cc1ccc(-n2nnnc2SCC(=O)NNC(=O)c2ccco2)cc1C,0.1
CNC(=O)Cc1csc2ccc(Cl)cc12,0.8
N#Cc1ccc(/C=N/N=C(N)N)cc1,i
CC1(C)CC(=O)c2cc(OCC(=O)O)ccc2O1,i
Cc1cc(C(=O)Nc2c(C)nn(Cc3c(Cl)cccc3Cl)c2C)no1,1.2
CNC(=S)NC1CC2CCCC(C1)N2CC(C)C (stereo not drawn),i
O=C(C1CCN(S(=O)(=O)c2cccc3cccnc23)CC1)N1CCN(c2ccccn2)CC1,i
COc1cc(C(=O)Nc2ccc3c(c2)OCCO3)ccc1-n1cnnn1,2.6
COc1ccccc1OCCCCN1CCN(c2ccccc2OC)CC1,i
CC(Sc1nnc(-c2ccc(Cl)cc2)n1C)C(N)=O (stereo not drawn),0.4
CSc1nnc(-c2ccc(S(=O)(=O)N3CCCC3)cc2)n1C,i
COc1ccc(OC)c(S(=O)(=O)N2CCCc3ccccc32)c1,i
N#Cc1nc(Cc2cccc3ccccc23)oc1N1CCC(C(N)=O)CC1,0.0
CN(C)c1ccc(C2N3CC4(C)CN2CC(C)(C3)C4O)cc1 (stereo not drawn),0.1
COc1ccc(C(=O)Nc2nnc(-c3ccccc3)o2)cc1OC,0.6
CCn1c(CSc2nc(C)cs2)nc2cc(S(=O)(=O)N(C)C)ccc21,1.5
CCOCCCn1c(=S)[nH]c2cc(C(=O)N3CCN(C)CC3)ccc2c1=O,1.3
CCOc1ccccc1N1CCN(S(=O)(=O)c2ccc3c4c(cccc24)C(=O)N3)CC1,0.1
COc1ccc(C2NC(c3ccc(OC)c(OC)c3OC)C(C)C(=O)C2C)c(OC)c1OC (stereo not drawn),i
Cc1ccc(N2CCN(c3ccc(C)cc3)C2c2cccnc2)cc1,1.2
C=CCn1cnc2c(c1=O)c1nc3ccccc3nc1n2-c1ccc(C)cc1,i
COCCN(CCOC)C(=O)CCn1c(=O)oc2ccccc21,i
COc1cc2c(cc1NC(=O)C1CCCO1)oc1ccccc12 (stereo not drawn),i
CC(C)CC(=O)Nc1cccc(-c2cn3ccsc3n2)c1,0.1
Cc1ccc(NC(=O)c2cc(S(=O)(=O)c3ccccc3)ccc2Cl)cc1,2.1
O=C(NCc1cn2ccsc2n1)c1c(F)cccc1Cl,0.6
COc1ccc(C2CC(c3ccc(Br)cc3)Nc3nc(N)nn32)cc1 (stereo not drawn),i
COC(=O)c1ccc(CSc2nnnn2Cc2ccccc2)cc1,0.5
O=C1CC(c2ccccc2)Cc2nc(N3CCc4ccccc4C3)ncc21 (stereo not drawn),1.0
COc1ccc(C(CNC(=O)CCOc2ccccc2)N(C)C)cc1 (stereo not drawn),i
Cc1cc(NC(=O)Cn2c(=O)n(Cc3ccccc3)c(=O)c3ccccc32)no1,i
COCc1cc(=O)n2[nH]c(-c3ccsc3-n3c(C)ccc3C)cc2n1,15.0
O=C(CCCCCN1C(=O)CCC1=O)Nc1ccc2c(c1)OCCO2,i
COc1ccc(-c2nnc3sc(-c4cccs4)nn23)cc1OC,7.6
O=C(NC1CCCCC1)C(c1ccc2ncccc2c1)N(Cc1ccc2c(c1)OCO2)C(=O)c1cccs1 (stereo not drawn),i
Cc1cc(/C=N/NC(=O)C(=O)N2CCCC2)c(C)n1-c1cccc(Br)c1,1.9
COc1ccc(C2=Nn3c(nnc3-c3ccccn3)SC2)cc1,1.8
CCCOc1ccc2ccccc2c1/C=N/n1cnnc1,1.4
COc1cc(S(=O)(=O)N2CCN(c3ccccc3)CC2)ccc1Cl,1.8
